AF4-AF9 inh = inhibitors of AF4 peptide binding to AF9, primary screen, biochemical, AlphaScreen, biotin-AF4 peptide, FLAG-AF9, single point; actives 0.47% (n = 350,000); Protein AF-9 (Homo sapiens), P42568; inhibition, % at 10 µM;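 active = every replicate reaching a set inhibition limit, whatever the replicate mean, cut at about 25% in these data; inconclusive = mean inhibition reaches that limit but some replicates miss it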;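 also: 0% = plate neutral control median and 100% = total signal loss; the record names both 10 and 1 µM as test concentration; the first replicate is given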
Target sequence (P42568 whole entry, looked up): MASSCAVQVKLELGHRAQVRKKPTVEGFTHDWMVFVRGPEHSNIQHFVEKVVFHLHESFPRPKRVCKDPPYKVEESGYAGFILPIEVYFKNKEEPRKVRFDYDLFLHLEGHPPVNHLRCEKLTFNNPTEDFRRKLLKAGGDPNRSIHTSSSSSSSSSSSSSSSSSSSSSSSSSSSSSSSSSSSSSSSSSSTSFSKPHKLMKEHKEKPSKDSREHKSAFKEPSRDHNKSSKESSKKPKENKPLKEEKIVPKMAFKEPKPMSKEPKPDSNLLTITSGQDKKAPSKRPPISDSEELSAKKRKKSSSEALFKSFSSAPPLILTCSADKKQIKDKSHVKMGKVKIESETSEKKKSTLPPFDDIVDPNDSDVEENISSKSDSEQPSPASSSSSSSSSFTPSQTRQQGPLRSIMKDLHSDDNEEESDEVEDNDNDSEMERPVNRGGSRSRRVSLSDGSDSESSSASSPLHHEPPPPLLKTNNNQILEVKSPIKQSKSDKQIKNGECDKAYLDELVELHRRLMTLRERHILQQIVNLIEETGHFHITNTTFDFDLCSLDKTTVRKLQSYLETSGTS
Beta apoptosis = inhibitors of cytokine-induced beta cell apoptosis, primary screen, luminescence. INS-1E cytokine-induced death, ATP luminescence, 48 h; percent of positive-control rescue, neutral wells zero. protection from apoptosis, % (concentration not given with the values). actives 0.8% (n = 300,000). AID 435005, 2010;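 active = all replicates at 75% or more, or half of them and the mean; inconclusive = half reach 75% but not the mean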;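 also: 0% = cytokine-treated negative control wells and 100% = positive control rescue; higher means more ATP so stronger rescue from cytokine killing; wells of about 40 µL received 100 nL stock; the first replicate is given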
ALR H2O2 inh = inhibitors of human ALR sulfhydryl oxidase, primary screen, biochemical, H2O2 detection, HRP-luminol luminescence, single point; purified ALR, DTT oxidation; inhibition, % (test concentration not listed); actives 3.8% (n = 290,000); AID 485317, 2010;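 active = mean and each replicate at 75% or more; inconclusive = only one of the two met; inactive = neither met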;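 also: stock transfer was 7.5 nL into about 7.5 µL; 0% = neutral wells and 100% = wells with inactivated enzyme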
Target sequence (P55789 whole entry, looked up): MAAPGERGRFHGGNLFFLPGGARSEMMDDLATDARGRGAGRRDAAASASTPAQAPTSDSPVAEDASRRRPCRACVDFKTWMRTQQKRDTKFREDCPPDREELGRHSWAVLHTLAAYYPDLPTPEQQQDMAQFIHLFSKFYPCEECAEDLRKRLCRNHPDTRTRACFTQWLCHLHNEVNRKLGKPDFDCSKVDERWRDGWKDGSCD
rRNA inh HTS = reduced GFP signal of wild-type E. coli, primary screen, bacterial rRNA inhibitor project, GFP/RFP fluorescence, OD600, single point. E. coli WT GFP vs humanized-ribosome RFP mutants, 24 h; hits give low values; DMSO median 0, no signal -100. GFP signal change (wild-type ribosome), % (concentration not given with the values). actives 1.6% (n = 350,000). AID 720706, 2013;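 active = significant combined selectivity score with lowered wild-type GFP, culture density cut under 30%, mutant RFP and density less affected; inactive = any of these conditions unmet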; also: one replicate is shown; some compounds called inactive have numbers as strong as hits
RanGTP-Imp inh = inhibitors of RanGTP-importin-beta interaction, primary screen, biochemical, FRET, CFP-Ran, YFP-importin-beta, homogeneous. AID 2216, 2009. inhibition, % (concentration not given with the values). cell-free CFP-Ran/YFP-importin-beta FRET ratio. Ran GTPase (GTP-bound) - importin-beta complex. actives 1.1% (n = 300,000);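 active = most replicates above 15%; inconclusive = exactly half above 15%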;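 also: 0% = DMSO wells and 100% = Ran loaded with GDP instead of GTP; wells of about 40 µL received 100 nL stock; the first replicate is given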
Calb FLC = C. albicans growth inhibition with fluconazole, primary screen, CaCi-2 strain, Alamar Blue fluorescence; C. albicans CaCi-2 (fluconazole-resistant clinical isolate) + fluconazole, 48 h; growth inhibition, % (test concentration not listed); actives 0.57% (n = 300,000); AID 1979, 2009;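 active = most replicates above 75%; inconclusive = exactly half above 75%; inactive = most below 75%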;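 also: all wells also contain fluconazole at 8 µg/ml as a sub-toxic cotreatment; 0% = median of DMSO wells and 100% = median of geldanamycin control wells; wells of about 8 µL received 7.5 nL stock; the first replicate is given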
FGF22 binding = binders of human FGF22 protein, primary screen, FGF22 synaptogenesis inhibitor project, biophysical, thermal shift, single point | Fibroblast growth factor 22 (Homo sapiens), Q9HCT0 | recombinant FGF22 thermal shift, SYPRO orange fluorescence; percent of sucrose octasulfate shift, DMSO zero | calls only at 9.99 µM | actives 1.5% (n = 340,000) | AID 651658, 2012;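 active = melting point raised past a set limit in the mean and every replicate; inconclusive = no clear call; three in four hits are not shown here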
Target sequence (Q9HCT0 whole entry, looked up): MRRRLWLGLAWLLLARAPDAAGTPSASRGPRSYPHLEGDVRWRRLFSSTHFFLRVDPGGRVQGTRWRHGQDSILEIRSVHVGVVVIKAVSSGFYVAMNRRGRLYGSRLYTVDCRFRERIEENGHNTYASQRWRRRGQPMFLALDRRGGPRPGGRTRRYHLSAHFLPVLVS
T cruzi inh = inhibitors of intracellular T. cruzi growth, primary screen, luminescence, NIH3T3 host cells; T. cruzi beta-gal in NIH3T3, 90 h; inhibition, % (no concentration beside the values); actives 1.4% (n = 300,000);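 active = mean inhibition across valid replicates above about 55%, limit read from the data; inconclusive = mean below that limit but half or more replicates reach it; inactive = mean below it, under half of replicates reach it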;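 also: signal also drops with host cell toxicity which is not excluded here; 0% = plate median of DMSO wells and 100% = zero luminescence signal; higher percent means less beta-gal luminescence so fewer parasites; stock transfer was 50 nL into about 50 µL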
rRNA inh HTS OD600 = recorded beside rRNA inh HTS, whose call it bears; OD600 change, %; measured here: OD600 growth;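 optical density of the mix in the first replicate; 0 = DMSO median and -100 = no signal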
rRNA inh HTS RFP = also measured in rRNA inh HTS; calls as there; RFP signal change, %; measured here: RFP humanized mutant strains;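 first replicate; 0 = DMSO median and -100 = no signal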
An asterisk follows results filed as active; i = inactive; ? = inconclusive; . = no result given. These rows are one share of the data; count on the stated rates, not on these rows.

SMILES	AF4-AF9 inh	Beta apoptosis	ALR H2O2 inh	rRNA inh HTS	rRNA inh HTS OD600	rRNA inh HTS RFP	RanGTP-Imp inh	Calb FLC	FGF22 binding	T cruzi inh
Cc1nn(-c2ccccc2)c2c1C(c1ccc([N+](=O)[O-])cc1)N1C(=N2)C(=O)Nc2ccccc21 (stereo not given)	10	20	.	-2	5	1.4	0.9	-2	i	26
Cc1ccc(C)c(N2CCN(C(=O)C3CCC3)CC2)c1	0.8	3	7	-8	-7	-1.5	-1.5	-1	i	-5
CCc1cccc(OCC(=O)Nc2cc(S(=O)(=O)N3CCOCC3)ccc2N2CCCC2)c1	0.6	-7	-2	-12	-10	-0.6	-2.7	-2	i	23
O=C(CN(C(=O)CNS(=O)(=O)c1ccc(F)cc1)C1CCCC1)NCc1ccco1	-1.1	1	3	3	6	-1.6	-3.0	17	i	1
CCOC(=O)c1sc(NC(C)=O)nc1-c1ccccc1	.	.	-3	.	.	.	?	?	.	-4
CCOc1ccccc1N(C(=O)Nc1cccc(Cl)c1)C1=NC(C)CS1 (stereo not given)	0.3	-7	.	-39	-67	-15	0.8	-9	i	-16
CC(CCc1ccccc1)NC(=O)CSc1nccc(=O)[nH]1 (stereo not given)	.	1	-3	3	7	0.6	-1.4	4	.	3
CN(C)CCOC(=O)c1cccc(Br)c1	.	-7	.	.	.	.	6.6	-4	.	2
Cc1ccc(S(=O)(=O)N2CCN(CC(=O)N/N=C\c3ccccn3)CC2)cc1	-20	-4	7	-1	2	1.7	3.3	4	i	0
Cc1nc(-c2ccccc2)sc1C1(C)CC(c2ccc(C#N)cc2)=NO1 (stereo not given)	3.5	0	.	-2	-12	16	-2.6	-4	i	0
COc1cccc(C2C(C(N)=O)=C(C)Nc3nc(-c4ccccc4Cl)nn32)c1 (stereo not given)	-1.2	1	6	3	-3	-2.4	-1.7	-2	i	0
CC[C@H](C)C(C(=O)N1CCN(C(=O)OC(C)(C)C)CC1)n1cc(C(CC(C)C)NC(=O)OC(C)(C)C)nn1 (stereo not given in full)	-5.1	2	-9	2	3	-2.8	-5.5	3	i	14
O=C(CSc1ncn[nH]1)c1ccc(OC(F)F)cc1	-3.1	-2	16	8	5	-4.8	0.8	8	i	-5
Cc1ccc(CCNC(=O)C2CCN(S(=O)(=O)c3ccc4c(c3)NC(=O)C(C)S4)CC2)cc1 (stereo not given)	-25	21	-3	-1	4	1.7	2.1	17	i	14
Cc1cc2oc(=O)c(CC(=O)O)c(C)c2c2occ(C(C)(C)C)c12	-1.7	0	4	-20	-44	1.3	0.5	-6	i	-4

Complete entries from above. Values in the order: AF4-AF9 inh | Beta apoptosis | ALR H2O2 inh | rRNA inh HTS | rRNA inh HTS OD600 | rRNA inh HTS RFP | RanGTP-Imp inh | Calb FLC | FGF22 binding | T cruzi inh
Listed for `Cc1nn(-c2ccccc2)c2c1C(c1ccc([N+](=O)[O-])cc1)N1C(=N2)C(=O)Nc2ccccc21` (stereo not given) = 10 | 20 | . | -2 | 5 | 1.4 | 0.9 | -2 | i | 26
Listed for `O=C(CSc1ncn[nH]1)c1ccc(OC(F)F)cc1` = -3.1 | -2 | 16 | 8 | 5 | -4.8 | 0.8 | 8 | i | -5

The list continues:
SMILES	AF4-AF9 inh	Beta apoptosis	ALR H2O2 inh	rRNA inh HTS	rRNA inh HTS OD600	rRNA inh HTS RFP	RanGTP-Imp inh	Calb FLC	FGF22 binding	T cruzi inh
O=C(N/N=C/c1ccc(-c2ccc([N+](=O)[O-])cc2)o1)c1cccnc1	-4.4	0	.	.	.	.	-4.1	5	i	7
COc1ccc(NC(=O)C(CC(=O)O)Cc2ccccc2)cc1 (stereo not given)	.	.	-7	.	.	.	3.6	-1	.	-13
CC1=CCC2C(=O)N(c3cc(C)on3)C(=O)C2C1 (stereo not given)	.	-9	-1	.	.	.	-1.8	-9	.	-10
O=C(c1cc(Br)c[nH]1)N1CCSCC1	-25	-2	0	1	5	-2.8	0.4	-2	i	-4
Cc1cnn(-c2ccc3nnc(-c4ccc(Br)cc4)n3n2)c1	.	7	1	.	.	.	-1.0	7	.	10
CS(=O)(=O)c1ccc(Cl)c(NC(=O)COC(=O)CNC(=O)c2ccc(Br)o2)c1	.	-10	1	.	.	.	-1.0	3	.	-6
CCOC(=O)C1=C(C)Nc2ncnn2C1c1ccccc1F (stereo not given)	.	2	-5	.	.	.	1.0	1	.	5
CCn1nnnc1SCC(=O)Nc1cccc(NC(C)=O)c1	.	0	66	.	.	.	?	-11	.	-13
CC(C)(C)c1ccc2c(c1)OCC(C(=O)O)O2 (stereo not given)	.	-3	-3	.	.	.	-0.2	0	.	-5
Nc1nonc1-n1nnc(C(=O)N/N=C/c2ccccc2F)c1CN1CCOCC1	-3.3	2	3	3	6	0.1	7.8	-5	i	-3
Cc1ccc(F)cc1NC(=O)CCOc1ccccc1	-8.7	4	-3	2	5	-2.1	0.6	-23	i	-9
Cc1ccc2[nH]c(=O)c(CN(CCCO)C(C)c3nnnn3Cc3ccco3)cc2c1 (stereo not given)	-3.3	-6	-1	11	4	4.9	-0.8	-8	i	8
Cn1c(CC(=O)Nc2ccccc2)nnc1SCC(=O)NC1=NCCS1	-0.4	-11	-3	7	9	-1.5	?	-4	i	-5
CC(=O)NCCc1nc2cc(NS(=O)(=O)c3ccc(Cl)cc3)ccc2n1C	0.9	-5	2	-9	-7	-2.0	1.8	6	i	-6
O=C(COC(=O)c1ccc(Br)cc1)NC1CCCC1	-0.7	-4	.	3	8	2.5	0.3	-1	i	2
Cc1cc(C=O)c(C)n1-c1cccc(C(=O)O)c1	1.7	-2	-4	23	16	-1.3	-0.7	-10	i	-16
O=S(=O)(/N=C(/Nc1ccccn1)c1ccccc1)c1ccc(Cl)cc1	.	-5	-8	.	.	.	-0.1	11	.	-27
CCOC(=O)C1CCCN(C(=O)CC(c2ccccc2)c2ccccc2)C1 (stereo not given)	.	3	-11	.	.	.	?	26	.	5
CCOC(=O)c1ccc(-n2c(CN3CCN(CCO)CC3)nc3ccc([N+](=O)[O-])cc3c2=O)cc1	2.6	-1	-11	2	6	-2.7	1.6	7	i	-8
O=C(Oc1cccc(O)c1)C1CCCCC1	.	-2	6	.	.	.	-3.1	-9	.	3
CCCCCCC(c1c(C)n(C)n(-c2ccccc2)c1=O)c1c(C)n(C)n(-c2ccccc2)c1=O	.	3	-21	.	.	.	-4.2	33	.	30
COc1cc2c(cc1OC)C(COc1ccc(C(C)C)cc1)NCC2 (stereo not given)	-6.3	2	8	9	-1	6.4	-1.8	4	i	44
O=C(CCc1nnc(CCCCc2ccccc2)o1)NCCc1cccnc1	-0.1	0	-30	-2	-7	2.6	1.6	9	i	60*
Cc1noc(C)c1S(=O)(=O)N1CCCN(C(=O)/C=C/c2ccccc2F)CC1	0.7	0	-1	4	-2	1.7	.	.	i	.
Cc1cc(-n2c(C)cc(C(=O)CSc3ncnc4ccccc34)c2C)no1	.	25	98*	.	.	.	0.1	0	.	30
COc1ccc(NC(=O)N2CCCc3ccccc32)c(OC)c1	2.6	-4	-3	6	0	0.2	0.6	1	i	20
COc1ccc(C2=CC(=O)C[C@H](c3ccc(OC)c(OC)c3)C2)cn1	-1.8	-2	0	-9	-4	-3.9	.	.	i	.
CCN1CCN(C(=O)/C(=C/c2cccs2)NC(=O)c2ccc(C)c(C)c2)CC1	2.0	-9	-3	17	16	3.5	3.4	-1	i	-1
C/C(=N\NC(=O)c1ccc(Cn2cc([N+](=O)[O-])cn2)o1)c1cccc(NC(=O)c2cccnc2)c1	4.0	-1	-6	3	6	-1.1	-3.0	4	i	9
Cc1cc(C(C)(C)C)c(O)c(C(C)(C)C)c1	3.4	8	10	.	.	.	-0.5	.	i	-14
Cc1cc(OC(C)C(=O)NCc2ccccn2)c2c(C)c(Cc3ccccc3)c(=O)oc2c1 (stereo not given)	0.7	7	0	10	19	-2.4	2.2	5	i	24
CCOC(=O)Nc1ccc2c(c1)N(C(=O)N1CCN(C)CC1)c1ccccc1S2	.	2	98*	.	.	.	-7.3	-14	.	0
COc1cc(-c2nc3ccc4ccccc4c3c3c2CCC3)cc(OC)c1OC	.	32	-1	.	.	.	-1.6	7	.	21
C=CCOc1ccc(CN(C)C(=O)CNC(=O)c2ccc(-c3ccccc3)cc2)cc1	-3.7	.	8	-5	-8	-0.7	0.2	2	i	?
COc1cc(OC)cc(C(C(=O)NC2CCCCC2)N(C(=O)c2ccno2)c2ccccc2)c1 (stereo not given)	.	-2	0	.	.	.	-1.8	-3	.	-8
CCN(CCCNC(=O)C1CCCN(S(=O)(=O)c2cnc[nH]2)C1)c1ccccc1 (stereo not given)	4.0	-5	98*	2	-1	-3.5	-2.1	3	i	12
CCOC(=O)c1c(C)oc2ccc(OC(=O)COc3c(F)c(F)c(F)c(F)c3F)cc12	-2.0	-8	-1	4	-11	0.5	-1.4	2	i	-4
Oc1ccc2ccccc2c1C=Nc1ccc(Cl)cn1	-0.8	-9	-11	18	12	-0.5	.	.	i	5
N#CCN1CCN(CC(=O)Nc2cccc3ccccc23)CC1	.	-8	-32	.	.	.	?	-16	.	20
Cc1nn2c(N3CCCC3)c3c(nc2c1-c1ccccc1)CCC3	-1.5	-15	-7	5	12	-1.9	-2.4	-1	i	15
COC(=O)c1ccc2c(=O)n(CCCCCC(=O)NCc3ccccn3)c(=O)[nH]c2c1	.	1	-10	.	.	.	3.0	0	.	-4
COc1ccc(-n2c(SCC(=O)N3CCCCC3)nnc2-c2cccnc2)cc1	.	3	-5	.	.	.	1.0	15	.	?
O=C(CN1C(=O)NC2(CCCCC2)C1=O)Nc1ccc(N2CCCCC2)cc1	5.5	1	93*	.	.	.	.	.	i	.
CCOC(=O)/C(C#N)=C/c1ccc(OCC(=O)Nc2ccccc2)c(OC)c1	.	2	-5	.	.	.	1.2	-1	.	-16
CCOc1ccc(CCNC(=O)C2CCC(=O)N2C2CCCCC2)cc1OCC (stereo not given)	-4.0	7	-9	5	-6	0.8	3.5	-4	i	19
Cc1ccc(S(=O)(=O)Cn2nnnc2CN2CCN(C(=O)c3ccco3)CC2)cc1	.	-2	-1	.	.	.	-1.8	-5	.	3
CCS(=O)(=O)Nc1ccc(C2=NN(C(=O)c3ccco3)C(c3cccc(F)c3)C2)cc1 (stereo not given)	5.9	12	-3	-16	-21	2.2	-1.7	33	i	16
O=C(O)c1ccc(Cl)c(NCc2ccncc2)c1	-18	.	.	9	14	-3.6	-1.4	7	i	-23
CCOC(=O)c1cc(-c2cccc([N+](=O)[O-])c2)on1	-0.4	-1	.	1	8	-3.8	?	-4	i	-7
Cc1cccc(-c2c3c(=O)n(C)c(=O)n(C)c3cn2CCO)c1	.	-5	-29	.	.	.	4.1	-5	.	-11
COc1ccc(-c2cc3ccccc3oc2=O)cc1NC(=O)c1ccc(Br)o1	.	10	-3	.	.	.	?	-1	.	8
